# Source: PubChem BioAssay
# ALR H2O2 inh: human ALR oxidase inhibition via reduced H2O2. inhibition, % (concentration not given with the values). purified ALR, DTT oxidation, H2O2 HRP-luminol luminescence. AID 485317. P55789. 290,000 compounds, 3.8% hits;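 active = mean and each replicate at 75% or more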;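 also: stock transfer was 7.5 nL into about 7.5 µL; 0% = neutral wells and 100% = wells with inactivated enzyme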
# AF4-AF9 inh: MLL-AF4/AF9 protein interaction inhibition; P42568; AlphaScreen, biotin-AF4 peptide binding to FLAG-AF9; inhibition, % at 10 µM; 350,000 compounds, 0.47% hits; AID 651704;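 active = every replicate reaching a set inhibition limit, whatever the replicate mean, cut at about 25% in these data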;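 also: 0% = plate neutral control median and 100% = total signal loss; the record names both 10 and 1 µM as test concentration; the first replicate is given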
# Ecoli growth: blocks Escherichia coli growth; OD600, 23 h; hits give low values; OD600 absorbance (no concentration beside the values); 330,000 compounds, 0.21% hits; AID 1053175;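 active = OD600 absorbance below the run mean of sample wells minus 3.6 SD, in any replicate, cut at about 0.56 in these data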;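 also: stock transfer was 300 nL into about 60 µL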
# FGF22 binding: shifts melting point of recombinant human FGF22; Q9HCT0; recombinant FGF22 thermal shift, SYPRO orange fluorescence; percent of sucrose octasulfate shift, DMSO zero; calls only at 9.99 µM; 340,000 compounds, 1.5% hits;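 active = melting point raised past a set limit in the mean and every replicate; three in four hits are not shown here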
# Target sequence (Q9HCT0 whole entry, looked up): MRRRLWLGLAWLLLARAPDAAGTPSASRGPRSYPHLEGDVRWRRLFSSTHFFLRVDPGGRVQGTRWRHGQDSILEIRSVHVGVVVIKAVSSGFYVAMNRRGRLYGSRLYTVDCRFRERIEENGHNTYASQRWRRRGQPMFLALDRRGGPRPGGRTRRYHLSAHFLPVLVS
# rRNA inh HTS: inhibitors of bacterial rRNA selective over humanized ribosomes. E. coli WT GFP vs humanized-ribosome RFP mutants, fluorescence, 24 h; hits give low values; DMSO median 0, no signal -100. GFP signal change (wild-type ribosome), % (test concentration not listed). 350,000 compounds, 1.6% hits. AID 720706;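 active = significant combined selectivity score with lowered wild-type GFP, culture density cut under 30%, mutant RFP and density less affected; inactive = any of these conditions unmet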; also: one replicate is shown; some compounds called inactive have numbers as strong as hits
# HNF4A DNA FP: change in binding of human HNF4 alpha to DNA; AID 1224865; HNF4a-FITC DNA binding, fluorescence polarization, 1 h; 360,000 compounds, 0.3% hits; activity change, % at 10 µM; P41235; in the data active = activity change above about 30%, passing the limit was not always enough;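 also: controls were the assay level and a saturating level of protein; the project sought stronger binding though the title names inhibitors; some compounds called inactive have numbers as strong as hits; positive values seem to mean higher polarization but the record does not say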
# Target sequence (P41235 whole entry, looked up): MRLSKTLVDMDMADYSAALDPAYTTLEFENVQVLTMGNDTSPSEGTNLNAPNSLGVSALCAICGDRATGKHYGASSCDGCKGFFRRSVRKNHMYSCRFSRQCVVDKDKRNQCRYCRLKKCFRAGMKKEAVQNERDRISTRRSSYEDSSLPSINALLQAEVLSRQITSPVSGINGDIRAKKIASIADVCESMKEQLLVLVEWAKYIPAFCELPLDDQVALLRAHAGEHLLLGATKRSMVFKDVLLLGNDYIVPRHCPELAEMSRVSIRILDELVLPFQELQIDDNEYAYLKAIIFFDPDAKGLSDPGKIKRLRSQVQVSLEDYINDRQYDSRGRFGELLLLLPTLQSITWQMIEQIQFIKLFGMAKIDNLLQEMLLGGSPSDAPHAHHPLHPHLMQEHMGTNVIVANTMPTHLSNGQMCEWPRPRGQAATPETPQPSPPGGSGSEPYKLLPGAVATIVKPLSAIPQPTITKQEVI
# Vif A3G: HIV-1 Vif–A3G interaction blockers – biochemical, TR-FRET, GST-Vif 1-94, biotin-A3G peptide, dose response retest, primary screen (AID 1117319). TR-FRET GST-Vif / biotin-A3G peptide binding; higher % means a stronger effect; test concentration not given here; strong numbers were not always called active. inhibition, %; hits with a dose series show IC50 in µM. 260,000 compounds, 0.57% hits;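 active = above the screen mean plus three standard deviations and confirmed in dose response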;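 also: Vif residues 1-94 fused to GST binding biotinylated APOBEC3G peptide 110-148; 0% = full assay without inhibitor and 100% = GST in place of GST-Vif; retest series ran down from 100 µM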
# rRNA inh HTS OD600: recorded beside rRNA inh HTS, whose call it bears; OD600 change, %; measured here: OD600 growth;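 optical density of the mix in the first replicate; 0 = DMSO median and -100 = no signal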
# rRNA inh HTS RFP: second read-out of rRNA inh HTS, no call of its own (marks repeat the call); RFP signal change, %; measured here: RFP humanized mutant strains;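 first replicate; 0 = DMSO median and -100 = no signal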
# Active calls of the source: *; i = inactive; · = not tested or not shown. A portion of the library, so the mix of outcomes need not match the whole.
(1) C[C@@H]1CN([C@H](C)CO)C(=O)c2cc(Br)cnc2O[C@H]1CN(C)Cc1ccccn1
(2) CC(C)(C)NC(=O)N1CCCC(C(=O)c2cccc(Cl)c2)C1 (stereo not drawn)
(3) CCCOc1ccccc1Nc1nnc(C)c(=O)[nH]1
(4) C[C@@H]1CCCCO[C@@H](CN(C)C(=O)Cc2ccccc2)[C@H](C)CN([C@@H](C)CO)C(=O)c2cc(NC(=O)Nc3ccc(F)cc3)ccc2O1
(5) COc1ccc(C(=O)c2ccccc2)cc1Br
(6) COc1cc(-c2cc(C(=O)Nc3cc(S(=O)(=O)N4CCOCC4)ccc3O)c3ccccc3n2)cc(OC)c1OC
(7) Cc1cccc(NC(=O)c2cc(NC(=O)c3ccccc3)ccc2N2CCCCC2)c1
(8) COc1ccc(C(=O)NCCc2cc3c(OC)ccc(OC)c3[nH]c2=O)cc1OC
screen / no.	1	2	3	4	5	6	7	8
ALR H2O2 inh	·	-3	-18	·	-4	10	2	-7
AF4-AF9 inh	-2.7	-7.8	·	-1.0	·	5.6	·	-2.4
Ecoli growth	·	0.65	0.72	·	0.72	0.71	0.76	0.7
FGF22 binding	i	i	·	i	·	i	·	i
rRNA inh HTS	8	0	·	-3	·	3	·	-12
rRNA inh HTS OD600	4	1	·	-7	·	-1	·	0
rRNA inh HTS RFP	-3.2	2.5	·	1.6	·	-0.2	·	-3.8
HNF4A DNA FP	·	-2.1	4.8	·	-1.2	0.6	-1.2	0.6
Vif A3G	·	19%	1%	·	0%	·	-9%	-6%

(9) Cc1cc(C)cc(OCC(=O)OCC(=O)Nc2cc(S(=O)(=O)N3CCOCC3)ccc2C)c1
(10) CC(=O)Nc1ccc(S(=O)(=O)N2CCN(Cc3csc(C)n3)CC2)cc1
(11) C[C@@H]1CN([C@H](C)CO)C(=O)c2cccc(N(C)C)c2O[C@H]1CN(C)S(=O)(=O)c1cn(C)cn1
(12) CC1=C(C)CC(C(=O)Nc2nc(-c3ccc(C)cc3C)c(C)s2)C(C(=O)O)C1 (stereo not drawn)
(13) Cc1noc(C)c1S(=O)(=O)Nc1ccccc1Cl
(14) Cc1noc(C)c1NC(=O)N(C)C[C@@H]1Oc2c(NC(=O)c3nc4ccccc4s3)cccc2C(=O)N([C@@H](C)CO)C[C@@H]1C
(15) CCN(Cc1cnn(C)c1)C(=O)c1ccc2nc(Cc3ccccc3F)oc2c1
(16) CCOc1ccc(-n2c(SCc3cc(=O)oc4cc(C)ccc34)nnc2-c2cccnc2)cc1
screen / no.	9	10	11	12	13	14	15	16
ALR H2O2 inh	1	-3	·	5	0	·	·	-5
AF4-AF9 inh	1.9	1.3	-1.7	·	-0.3	0.5	0.5	17
Ecoli growth	0.69	0.65	·	0.65	0.7	·	·	0.67
FGF22 binding	i	i	i	·	i	i	i	i
rRNA inh HTS	13	0	0	·	9	-4	2	-23
rRNA inh HTS OD600	11	-3	3	·	14	-7	-15	-20
rRNA inh HTS RFP	4.1	-0.2	-2.5	·	0.2	0.6	-0.8	0.8
HNF4A DNA FP	2.0	-2.3	·	2.4	0.6	·	3.5	4.1
Vif A3G	-2%	1%	·	3%	-4%	·	1%	·

(17) O=C(C[C@H]1C[C@@H]2c3cc(NC(=O)NC4CCCC4)ccc3O[C@@H]2[C@@H](CO)O1)NCC1CC1
(18) Cc1ccc(C(=O)OCN2C(=O)c3ccccc3C2=O)c(O)c1
(19) CSCCC(NC(=O)c1ccc(C)o1)C(=O)O (stereo not drawn)
(20) CCCc1c(C(=O)N/N=C/c2c(OC)ccc3ccccc23)nnn1-c1nonc1N
(21) CCOC(=O)c1[nH]c2cc3c(cc2c1NC(=O)CN1CCC2(CC1)OCCO2)OCO3
(22) CCC(=O)NC(=S)Nc1ccc(N2CCN(C(=O)c3ccc(Cl)cc3)CC2)cc1
(23) Nc1ccc(-c2nc3ccc(N)cc3s2)cc1
(24) COC(=O)c1ccccc1S(=O)(=O)NNC(=O)Nc1ccccc1
screen / no.	17	18	19	20	21	22	23	24
ALR H2O2 inh	·	2	-11	-3	-2	5	99*	·
AF4-AF9 inh	-1.8	-1.1	·	-3.9	·	6.2	9.4	1.0
Ecoli growth	·	0.69	0.74	·	0.73	0.69	0.65	0.71
FGF22 binding	i	i	·	i	·	i	i	i
rRNA inh HTS	-1	15	·	11	·	-17	-11	0
rRNA inh HTS OD600	12	13	·	4	·	-11	-9	3
rRNA inh HTS RFP	-4.1	0.1	·	-0.8	·	13	-4.4	-0.8
HNF4A DNA FP	·	2.2	2.2	3.5	0.7	-2.0	3.5	2.1
Vif A3G	·	·	27%	·	1%	-1%	12%	-5%

# 5 entries from above in a different format.
entry	ALR H2O2 inh	AF4-AF9 inh	Ecoli growth	FGF22 binding	rRNA inh HTS	rRNA inh HTS OD600	rRNA inh HTS RFP	HNF4A DNA FP	Vif A3G	SMILES
4	·	-1.0	·	i	-3	-7	1.6	·	·	C[C@@H]1CCCCO[C@@H](CN(C)C(=O)Cc2ccccc2)[C@H](C)CN([C@@H](C)CO)C(=O)c2cc(NC(=O)Nc3ccc(F)cc3)ccc2O1
5	-4	·	0.72	·	·	·	·	-1.2	0%	COc1ccc(C(=O)c2ccccc2)cc1Br
6	10	5.6	0.71	i	3	-1	-0.2	0.6	·	COc1cc(-c2cc(C(=O)Nc3cc(S(=O)(=O)N4CCOCC4)ccc3O)c3ccccc3n2)cc(OC)c1OC
7	2	·	0.76	·	·	·	·	-1.2	-9%	Cc1cccc(NC(=O)c2cc(NC(=O)c3ccccc3)ccc2N2CCCCC2)c1
8	-7	-2.4	0.7	i	-12	0	-3.8	0.6	-6%	COc1ccc(C(=O)NCCc2cc3c(OC)ccc(OC)c3[nH]c2=O)cc1OC

# Following part
(25) Cc1ccc(C(=O)NCC(c2ccco2)N2CCc3ccccc3C2)cc1 (stereo not drawn)
(26) O=C(NCc1ccco1)C1CCCN(S(=O)(=O)c2ccc(-n3cnnn3)cc2)C1 (stereo not drawn)
(27) C[C@@H]1CN([C@@H](C)CO)C(=O)c2cc(-c3cccnc3)cnc2O[C@H]1CN(C)C(=O)C1CC1
(28) COC(=O)C1=C(C)NC(=O)/C1=C\c1ccco1
(29) N#Cc1c(-c2ccco2)nc(SCc2ccc(F)cc2)[nH]c1=O
screen / no.	25	26	27	28	29
ALR H2O2 inh	3	2	·	1	-13
AF4-AF9 inh	0.1	·	-4.6	·	-47
Ecoli growth	0.69	0.76	·	0.72	0.69
FGF22 binding	i	·	i	·	i
rRNA inh HTS	-5	·	8	13	-39
rRNA inh HTS OD600	-7	·	11	7	-54
rRNA inh HTS RFP	-2.7	·	-0.6	1.4	-9.0
HNF4A DNA FP	-1.2	-1.5	·	2.4	-1.4
Vif A3G	6%	32%	·	6.1µM*	-32%
